High-throughput results from PubChem.
gsp antagonist = antagonizes gsp, the McCune-Albright syndrome mutation | gsp-mutant cells, cAMP HTRF, 30 min; control for the full effect not named in the record | Potency, µM (doses to about 76.9 µM), for inactives: at the top dose activity change, negative = inhibition, actives largely listed as inhibitors | 0.4% of 340,000 active | AID 624288; active = falling curve of any shape with a large fitted effect; inconclusive = falling curve, mostly with a smaller effect; inactive = flat or rising curve; cell line not stated here;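 further: intracellular cAMP measured with PDE inhibitor Ro 20-1724 present during compound exposure; potency means the concentration at half of the fitted maximal effect; on the % scale 0 is the no-effect control and ±100 the full control effect; nearly all actives have a fitted effect of over 65% in size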
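Measurement of cellular cAMP by homogeneous time-resolved fluorescence following a 30 min compound exposure at 37C. The PDE inhibitor […] was present throughout; the assay buffer was DPBS with 0.05% BSA and 0.005% Tween 20.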
D2 ag = activates the human D2 dopamine receptor | P14416 | DiscoveRx PathHunter D2 beta-arrestin, luminescence, 90 min; 100% = 57 uM dopamine signal | activation, % (concentration not given with the values) | 0.084% of 360,000 active; in the data active = activation above about 40%; inconclusive = about 15% to 40%; inactive = below about 15%; further: compound concentration not given in the record; the text of the record calls up to 30% inactive
Target sequence (P14416 whole entry, looked up): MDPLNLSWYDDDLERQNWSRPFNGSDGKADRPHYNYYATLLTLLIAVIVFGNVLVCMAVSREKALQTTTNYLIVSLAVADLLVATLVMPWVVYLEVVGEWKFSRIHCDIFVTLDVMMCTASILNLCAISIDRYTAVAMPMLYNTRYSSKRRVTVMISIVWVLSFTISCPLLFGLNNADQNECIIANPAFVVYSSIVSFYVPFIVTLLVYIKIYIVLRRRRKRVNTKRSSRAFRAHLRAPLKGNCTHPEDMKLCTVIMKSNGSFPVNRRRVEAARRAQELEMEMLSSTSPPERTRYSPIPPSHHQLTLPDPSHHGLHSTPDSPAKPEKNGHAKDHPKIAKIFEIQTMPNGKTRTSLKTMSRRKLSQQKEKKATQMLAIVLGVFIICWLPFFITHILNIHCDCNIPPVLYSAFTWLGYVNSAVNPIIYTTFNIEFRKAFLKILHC
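DiscoveRx PathHunter D2 beta-arrestin cells (2,100/well) attached overnight, then compound-stimulated 90 min at 37 C in HBSS/10 mM HEPES/0.1% Tween-20 buffer; beta-galactosidase complementation read by luminescence after 1 h at ambient temperature. Dopamine 57 uM final (EC100) as control.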
gsp ag = activates gsp, the McCune-Albright syndrome mutation; 0.13% of 340,000 active; Potency, µM (titrated, usually from 76.9 µM), for the others: top-dose activation (cAMP increase), hits mostly activators; gsp mutant cells, cAMP HTRF, 30 min; control for the full effect not named in the record; AID 624287; active = well fitted activation curve with a large enough effect; inconclusive = small, poorly fitted or top-dose-only effect, or another doubt; inactive = no such curve, though single readings can be large or run the other way; cell line not stated here;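 further: phosphodiesterase inhibitor Ro 20-1724 added with compounds to block cAMP breakdown; potency means the concentration at half of the fitted maximal effect; nearly all actives have a fitted effect of over 60% in size; about a fifth of the inactives were tested at one dose only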
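Cells in DMEM/10% FBS with G418 were pretreated with compounds in DMSO plus […] (300 uM stock) for 30 min at 37C. cAMP was measured by HTRF (cAMP-d2 plus anti-cAMP antibody-K) after 30 min at room temperature.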
D2 potentiator = positive allosteric modulators of human D2 dopamine receptor; P14416; potentiation, % (test concentration not listed); AID 624464; DiscoveRx D2 beta-arrestin cells, luminescence, 90 min; 100% = 57 uM dopamine signal; 0.23% of 360,000 active; active = potentiation of 50% or more; inconclusive = 30% to 50%; inactive = 30% or less;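 further: compound concentration not given in the record; tested on top of an EC20 dose of dopamine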
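PathHunter beta-arrestin assay in DiscoveRx D2 cells. Compounds were added with an EC20 of dopamine (50 nM final) for 90 min at 37 deg C. Luminescence was read 1 h after detection reagent, with 57 uM dopamine as the EC100 control.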
Six1-Eya2 inh = inhibitors of human Six1/Eya2 interaction. Q15475+O00167. AlphaScreen GST-Six1/His-Eya2 binding, biochemical; active compounds read low; control for the full effect not named in the record. activity change, % (test concentration not listed). 0.56% of 360,000 active. AID 651725; in the data active = activity change below about -65%; inconclusive = about -30% to -65%; inactive = above about -30%; further: on the % scale 0 is the no-effect control and ±100 the full control effect
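Six1/Eya2 binding was read as AlphaScreen signal after compounds were pinned into GST-Six1 plus His-tagged Eya2 (5X stock 250/500 nM) in pH 8.0 Tris/NaCl/TCEP buffer, beads added, then incubated 1 h, 37 C, dark.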
CtBP-E1A inh = inhibitors of CtBP/E1A interaction | AlphaScreen GST-E1A/His-CtBP binding, 1536-well; active compounds read low; control for the full effect not named in the record | 0.49% of 340,000 active | activity change, % (concentration not given with the values); in the data active means activity change below about -65%; inconclusive means about -30% to -65%; inactive means above about -30%; further: on the % scale 0 is the no-effect control and ±100 the full control effect
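GST-E1A and His-tagged CtBP (125 nM each as 5X stock) were preincubated with pin-transferred compound for 2 h at 37 °C in the dark, then glutathione donor and nickel acceptor beads were added for 1 h before AlphaScreen reading.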
* hit, by the source's call; ? = inconclusive; / = no result given; [ ] = remark or other dose.

SMILES | gsp antagonist | D2 ag | gsp ag | D2 potentiator | Six1-Eya2 inh | CtBP-E1A inh
Cc1ccc(C(O)c2ncc(-c3ccccc3)[nH]2)c(C)c1 (stereo not given) | / | -1.1 | / | -5 | -14 | -7
COc1ccc(-n2c(SCC(C)=O)nc3sc(C)c(C)c3c2=O)cc1 | -5% | -6.4 | -26% | -17 | -4 | /
CC(=O)N[C@@H](Cc1c[nH]c2ccccc12)C(=O)OCc1ccc(C#N)cc1 | 1% | 2.2 | -27% | 1 | 4 | -3
COc1ccc(/C=C/C(=O)Oc2ccc(/C=N/NC(=O)c3ccncc3)cc2)cc1 | 4% | -2.9 | -6%[15.4 µM] | -26 | -10 | 18
CCn1c(=O)cc(SCC(=O)Nc2cccnc2)c2ccccc21 | 0% | -3.1 | ? | -11 | -10 | -3
CCCNC(=O)c1cc(-c2ccc(OC)cc2)n(CCCOC)c1C | -13% | 2.6 | -11%[15.4 µM] | 6 | -4 | -3
CC1CCCN(CCCNC(=O)c2ccc3c(c2)N(Cc2ccc(F)cc2)C(=O)c2ccccc2S3=O)C1 (stereo not given) | 2% | -9.3 | ? | -39 | -5 | -13
CCc1cc(=O)oc2c3c(cc(OCC(=O)NCCCCCC(=O)O)c12)OC(C)(C)CC3 | -22% | 3.6 | ? | -2 | -4 | -7
COc1ccc(Cl)cc1C(=O)NNC(=O)COC(=O)CC(NC(C)=O)c1ccccc1 (stereo not given) | -6% | -5.4 | -4%[15.4 µM] | -10 | -3 | -9
CCOc1cc(C(=O)Nc2cnccn2)cc(OCC)c1OCC | -12% | -2.2 | -11% | 2 | -1 | 1
COc1ccc(Cl)cc1NC(=O)CS(=O)(=O)c1cccc2nsnc12 | 1% | -3.8 | -78%[inhibitor] | -6 | -8 | -5
COc1ccc(C(=O)Nn2cnc3ccccc3c2=O)cc1[N+](=O)[O-] | 0% | -3.6 | -15% | -10 | 8 | /
O=C(COc1ccc2c(-c3ccccc3)cc(=O)oc2c1)NCCCn1ccnc1 | -13% | -4.7 | / | -48 | 0 | -12
O=C(Nc1ccc(Cl)cc1)N1CC=CCC1 | -15%[15.4 µM] | -1.8 | -15% | -12 | -3 | -1
CC(C)c1csc2nc3n(c(=O)c12)CCCCC3 | -2% | 1.9 | 3% | -2 | 6 | -16
Cc1ccc(S(=O)(=O)Nc2ccc(NC(=O)/C=C/C(=O)O)cc2)cc1 | 11% | -2.6 | 12% | -3 | 9 | 5
COc1ccc(Br)cc1/C=N/NC(=O)c1ccc2nc[nH]c2c1 | -6% | 6.3 | 12% | -11 | -2 | -21
CC(=O)OCC1=C(C(=O)O)N2C(=O)[C@@H](NC(=O)Cc3ccccc3)[C@H]2SC1 | -6% | -0.4 | -17% | -4 | 2 | -18
COc1ccc(C(=O)Nc2nnc(Cc3ccc(OC)c(OC)c3)s2)c(OC)c1 | -1% | 5.2 | -61%[inhibitor] | 1 | -9 | -16
O=C1SCCC1NS(=O)(=O)c1ccc([N+](=O)[O-])cc1 (stereo not given) | 8% | 0.9 | -5% | 4 | -6 | 2
O=C(Nc1ccc([N+](=O)[O-])cn1)C1CC2CCC1C2 (stereo not given) | 14% | 1.7 | 12% | 0 | -5 | 0
O=C(c1cccnc1)N1CCN(Cc2ccccc2Br)CC1 | 1% | -4.1 | 10% | -1 | 4 | -3
OC(CCN1CCCCC1)(c1ccccc1)c1ccccc1 | 4% | -0.5 | / | -4 | -1 | -4
Cc1ccc(NC(=S)NCC(C)CSc2ccc(Cl)cc2)cc1 (stereo not given) | -1% | -3.4 | -5%[15.4 µM] | -2 | 5 | -1
CC(=O)c1ccc(S(=O)(=O)N(C)CC(=O)Nc2ccc(C)cc2)cc1 | 10% | -3.0 | 0% | -3 | 2 | 7
COc1ccc(OC)c(/C=N/NC(=O)c2ccc3nc[nH]c3c2)c1 | 1% | -1.4 | 2%[15.4 µM] | -2 | -8 | -3
CCCn1c(-c2ccc(F)cc2)n[nH]c1=S | 7% | 3.7 | 10% | 0 | 1 | -1
COCc1cc(C)nc(N2CCN(c3ccccc3)CC2)c1C#N | -17% | 0.2 | 27% | -3 | 3 | 4
COc1ccc(NS(=O)(=O)c2cc(NC(=O)c3cccs3)ccc2N2CCCC2)cc1 | -10% | -1.4 | -3% | -21 | ? | 0
COc1cccc(-c2cc(C(F)(F)F)n3nc(N)nc3n2)c1 | 2% | -1.8 | 2% | 9 | 0 | 4
COc1nnc(-c2ccccc2)s1 | 16% | -2.3 | 3% | -3 | 2 | 12
O=C(COC(=O)c1ccccc1O)Nc1cc([N+](=O)[O-])ccc1Cl | 17% | -5.7 | ? | -7 | 0 | 10
O=C(C1CC1)N1CCc2cc(Br)cc(S(=O)(=O)NCCCN3CCCC3)c21 | 6% | -1.7 | 0% | -10 | -1 | -3
O=C(c1cccs1)N1C[C@@H](n2cc(C3CC3)nn2)[C@H](O)C[C@@H]1c1ccc(Cl)cc1 | / | -11 | 11% | -3 | 3 | -5
O=[N+]([O-])c1cccc(-n2nnnc2CN2CCCC2)c1 | 5% | 0.9 | -1%[15.4 µM] | -6 | 4 | 2
Cc1ccccc1NC(=S)N(Cc1cccnc1)Cc1ccco1 | 7% | -10 | 3%[15.4 µM] | -3 | 6 | -6
O=C(Nc1ccc(N2CCOCC2)c(Cl)c1)c1cccnc1Cl | 16% | 0.4 | -25% | 12 | 13 | 5
CCN(CC)C(=S)SC1=CCS(=O)(=O)C1 | 14% | -1.6 | -3%[15.4 µM] | -4 | 18 | /
Clc1ccc(-c2nnnn2-c2ccc(Cl)c(Cl)c2)cc1Cl | 5% | -4.4 | 2% | 0 | 36 | 28
Cn1c2ccc(F)cc2c2nnc(SCCN3CCOCC3)nc21 | -2% | -2.7 | ? | -13 | -14 | -2

As entered above.
`OC(CCN1CCCCC1)(c1ccccc1)c1ccccc1` – gsp antagonist: 4%
`COc1nnc(-c2ccccc2)s1` – gsp ag: 3%

2 entries from above, as comma-separated lines:
Molecule,gsp antagonist,D2 ag,gsp ag,D2 potentiator,Six1-Eya2 inh,CtBP-E1A inh
CC(=O)OCC1=C(C(=O)O)N2C(=O)[C@@H](NC(=O)Cc3ccccc3)[C@H]2SC1,-6%,-0.4,-17%,-4,2,-18
OC(CCN1CCCCC1)(c1ccccc1)c1ccccc1,4%,-0.5,/,-4,-1,-4

New compounds follow.
SMILES | gsp antagonist | D2 ag | gsp ag | D2 potentiator | Six1-Eya2 inh | CtBP-E1A inh
COc1ccc(OC)c(C(=O)N2CCCC(Nc3ccc(F)cc3)C2)c1 (stereo not given) | 0% | -5.1 | 13%[15.4 µM] | 2 | -7 | 0
CS(=O)(=O)N(Cc1nnc(-c2cccs2)o1)c1ccc(Cl)cc1F | -13% | -4.1 | ? | -4 | -1 | -1
C/C(N)=C(/C#N)C(=O)CSc1nc2cc(Cl)ccc2c(=O)n1Cc1ccco1 | -20% | -2.6 | -12%[15.4 µM] | -12 | -3 | -14
O=C(C(=O)N1CCN(c2ccccc2F)CC1)c1cn(CC(=O)N2CCCC2)c2ccccc12 | / | 1.4 | -53% | -18 | 6 | -3
COc1cccc(CNc2nnnn2C)c1 | 7% | -1.1 | 2%[15.4 µM] | -1 | 24 | -8
COc1cc(/C=C/C(=O)c2ccc3c(c2)OCCO3)cc(Br)c1OCC(=O)N(C)C | -20% | -5.0 | 0%[15.4 µM] | -8 | 1 | 3
O=C(COc1ccccc1Cl)Nn1cnnc1 | 8% | -4.1 | 21% | -4 | 5 | 0
Nc1nc(Nc2ccccc2Cl)cc(=O)[nH]1 | 2% | 1.0 | ? | -1 | -15 | -24
COCC(C)n1c(SCC(=O)Nc2nccs2)nc2ccccc2c1=O (stereo not given) | -6% | -4.5 | 16% | -7 | 6 | /
Cc1ccc(CN2CCC(c3nc4ccc(Cl)cc4[nH]3)CC2)cc1 | 2% | -1.2 | -1% | -31 | -4 | 5
COc1ccc(N=Cc2ccc(CNS(=O)(=O)c3ccc(Cl)cc3)o2)cc1 | 0% | -1.7 | -41%[inhibitor] | 8 | 13 | -19
COC(=O)c1ccc(COc2ccc3c(c2)CCC3)o1 | -5% | -5.0 | -7%[15.4 µM] | -2 | 9 | 2
C#CCOCCOCCOCCNc1nc(N2CCOCC2)nc(N2CCN(C(=O)Cn3cc(CCCN=C(N)N)nn3)CC2)n1 | 11% | 0.0 | / | -15 | -4 | 0
Cc1[nH]n(-c2cccc3ccccc23)c(=O)c1C=Nc1ccc2[nH]c(=O)[nH]c2c1 | 6% | -3.2 | 8% | -12 | ? | ?
CSCC[C@H](N)C(=O)NC[C@H]1CC[C@H](C(=O)N[C@@H](Cc2ccccc2)C(=O)O)CC1 | 10% | -1.1 | -1% | -5 | -1 | -1
Cc1cccc(-c2noc(-c3ccc4c(c3)OCO4)n2)c1 | 5% | 1.8 | -4%[15.4 µM] | 3 | 8 | 2
CCCN(CC1CC1)c1nc(N)c2c(N)nc(OC)cc2c1C#N | 6% | 0.7 | -9% | 5 | 8 | -3
Cc1ccnc(NC2OC(=O)c3ccccc32)c1 (stereo not given) | 13% | -4.4 | -33%[inhibitor] | -6 | 7 | 5
CCCCn1c2ccc(F)cc2c2nnc(NN)nc21 | -6% | -8.0 | -4% | -5 | -14 | -19
O=C1Nc2ccccc2C1=Nc1ccc(Br)cc1 | 13% | -14 | -1% | -41 | 8 | /

Full records, looked up by structure.
Results for Cc1ccnc(NC2OC(=O)c3ccccc32)c1 (stereo not given) → gsp antagonist = 13%; D2 ag = -4.4; gsp ag = -33%[inhibitor]; D2 potentiator = -6; Six1-Eya2 inh = 7; CtBP-E1A inh = 5
Results for O=C(COc1ccccc1Cl)Nn1cnnc1 → gsp antagonist = 8%; D2 ag = -4.1; gsp ag = 21%; D2 potentiator = -4; Six1-Eya2 inh = 5; CtBP-E1A inh = 0

Going on with the list:
SMILES | gsp antagonist | D2 ag | gsp ag | D2 potentiator | Six1-Eya2 inh | CtBP-E1A inh
Cc1cc(C=C2C(=O)c3ccccc3C2=O)c(C)n1-c1ccccc1 | -13% | -3.6 | 26% | -5 | -2 | 0
CCC1Oc2ccc(C)cc2N(CC(=O)NCCN2CCOCC2)C1=O (stereo not given) | 5% | 8.4 | -4% | -4 | 3 | 6
CCOc1ccc(N2C(=O)C(Cl)=C(Nc3ccccc3O)C2=O)cc1 | ? | -1.4 | -12% | -11 | -5 | 3
CCOc1ccccc1CNC(=O)CCC(=O)N1Cc2ccccc2Oc2ncccc21 | -3% | 0.2 | ? | -7 | 10 | 0
C/C(=N\n1cnnc1)c1ccccc1 | 11% | -0.8 | -27% | 7 | 0 | 16
Cc1cc(C)n2nc(N)c(N=Nc3ccc(Cl)cc3)c2n1 | ? | 1.7 | -14% | -18 | -21 | 6
O=C(Nc1ccc(F)c(Cl)c1)c1cc(C2CCCCN2C(=O)CCCc2ccccc2)on1 (stereo not given) | / | 7.9 | / | -3 | 7 | 5
Cc1ccc(C)c(NC(=O)CSc2nc3c(c(=O)n2C)SC(C)C3)c1 (stereo not given) | -11% | -1.3 | 7% | -3 | 0 | 0
COc1ccnc(NCc2cccnc2)c1C#N | 1% | -2.6 | 11% | 9 | 1 | -2
